CBX7 AlphaScr: blocks human CBX7 binding to H3K27me3 peptide. O95931. normalised signal (fraction of DMSO) (no concentration beside the values). hit rate 1.1% among 66,000. AlphaScreen His6-CBX7 / biotin-H3K27me3 peptide binding; hits give low values. AID 1224903; in the data active = normalised signal below about 0.5;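 note: 100 nL library stock added to about 20 µL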
Target sequence (O95931 whole entry, looked up): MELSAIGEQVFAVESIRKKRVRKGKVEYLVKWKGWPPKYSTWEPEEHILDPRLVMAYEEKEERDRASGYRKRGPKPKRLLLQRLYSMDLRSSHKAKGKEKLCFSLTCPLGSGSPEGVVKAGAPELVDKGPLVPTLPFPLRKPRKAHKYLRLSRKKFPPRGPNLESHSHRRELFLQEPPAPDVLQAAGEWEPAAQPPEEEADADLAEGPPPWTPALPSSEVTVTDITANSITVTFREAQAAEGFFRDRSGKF
CBX7 AlphaScr z-score: further read-out of CBX7 AlphaScr, marked with its call; z-score; measured here: z-score of CBX7 signal; some inactives read as strong as hits; reference of the scale not given here;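 same signal on another scale; lower means less binding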
* hit, by the source's call.

SMILES | CBX7 AlphaScr | CBX7 AlphaScr z-score
COc1ccccc1CC(=O)Nc1ccc(-c2noc(COc3cccc(C)c3)n2)cc1 | 1 | -0.082
COc1ccc(-c2cc(C(=O)NCc3ccc(F)cc3)no2)cc1OC | 1.1 | 1.3
COc1ccc(C2(C(=O)NCC3(c4ccccc4)CCOCC3)CCOCC2)cc1OC | 1.1 | 0.23
COc1ccc(CCNC(=O)CCn2nc(-c3ccc(C)cc3)ccc2=O)cc1OC | 1 | 0.96
Cc1cccc(C2CC(=O)NC3=C2C(=O)CC(C)(C)C3)c1 (stereo not drawn) | 0.92 | -1.1
COc1ccc2c(c1)C(C)(CC#N)C(=O)N2C (stereo not drawn) | 0.96 | -0.47
CCc1ccc(-c2nc(CSCC(=O)NCC(OC)OC)c(C)o2)cc1 | 0.99 | -0.079
O=C(c1cc(-c2cccc(O)c2)on1)N1CCN(c2ccc(F)cc2)CC1 | 1 | 0.71
COc1cc(Nc2nc(-c3ccc(-c4ccccc4)cc3)cs2)c(OC)cc1Cl | 0.54 | -5
CCCCNC(=O)c1cc(-c2ccc(C)c(C)c2)nc2ccccc12 | 1 | 0.31
Cc1nn(C)c(C)c1S(=O)(=O)N(CC(=O)N1CCCCC1C)c1ccc(C(C)C)cc1 (stereo not drawn) | 1.1 | 2.2
COc1cccc(CNc2ccc3c(c2)ncn3-c2ccccc2)c1OC | 0.26* | -4.6*
Cc1ccc(Cn2nnc3c(=O)n(CC(=O)Nc4ccccc4C(F)(F)F)cnc32)cc1 | 1.1 | 1.6
Cc1ccc(Nc2ncc(C(=O)N3CCN(c4ccccn4)CC3)c3ccccc23)cc1Cl | 1.1 | 3.3
CCOc1cc(OCC)cc(C(=O)Nc2cc(-c3nc4ccccc4o3)ccc2OC)c1 | 1.1 | 0.41
CCN(C(=O)CCc1nc(-c2ccccc2F)no1)c1cc(Cl)ccc1OC | 1.1 | 2.1
COc1ccc(-n2ncc3c(NCCCN(C)C)ncnc32)cc1 | 1.2 | 0.55
CCOC(=O)c1cnc2c(C)c(Cl)ccc2c1Nc1cccc(C)c1 | 1.4 | 2.4
Fc1ccccc1C1CC(c2cccs2)Nc2ncnn21 (stereo not drawn) | 0.99 | -0.38
COc1cc2c(cc1OC)-c1nnc(-c3ccco3)n1C1(CCCC1)C2 | 1 | 1.1
CCCNC(=O)c1cc(-c2ccc(OC)cc2)n(CCCOC)c1C | 0.99 | -0.17
COc1cc2c(cc1OC)C(=NCCC(=O)O)NC(C)(C)C2 | 1 | 0.24
CC(C)c1ccc(-n2c(CCC(=O)O)ccc2-c2ccc(F)cc2)cc1 | 1.1 | 2.5
O=C1CN(C(=O)CC2CCCCC2)C(c2ccc(F)cc2)c2cc(F)ccc2N1 (stereo not drawn) | 1 | 0.13
O=C(Nc1c(C(=O)Nc2cccc(F)c2)oc2ccccc12)c1cccs1 | 1.1 | 1.3
Cc1cc(=O)n2nc(N3CCC(C(=O)NC4CCN(Cc5ccccc5)CC4)CC3)sc2n1 | 1.5 | 4.3
CC(C)(C)c1ccc(-c2csc(NC(=O)c3ccc(F)cc3)n2)cc1 | 1 | 1
COc1ccc(-n2c(O)cnc2Nc2nc(C)cc(C)n2)cc1OC | 1.2 | 0.84
O=C(Nc1nc(-c2ccc(F)cc2)cs1)c1cnccn1 | 0.97 | -0.97
CCOc1ccc(-n2c(=O)cc(N3CCN(c4ccc(F)cc4)CC3)[nH]c2=O)cc1 | 0.98 | -0.38

Looked up one by one from the list above, two records:
SMILES | CBX7 AlphaScr | CBX7 AlphaScr z-score
CCCCNC(=O)c1cc(-c2ccc(C)c(C)c2)nc2ccccc12 | 1 | 0.31
COc1ccccc1CC(=O)Nc1ccc(-c2noc(COc3cccc(C)c3)n2)cc1 | 1 | -0.082

The main list resumes, starting seven compounds before the break.
SMILES | CBX7 AlphaScr | CBX7 AlphaScr z-score
O=C1CN(C(=O)CC2CCCCC2)C(c2ccc(F)cc2)c2cc(F)ccc2N1 (stereo not drawn) | 1 | 0.13
O=C(Nc1c(C(=O)Nc2cccc(F)c2)oc2ccccc12)c1cccs1 | 1.1 | 1.3
Cc1cc(=O)n2nc(N3CCC(C(=O)NC4CCN(Cc5ccccc5)CC4)CC3)sc2n1 | 1.5 | 4.3
CC(C)(C)c1ccc(-c2csc(NC(=O)c3ccc(F)cc3)n2)cc1 | 1 | 1
COc1ccc(-n2c(O)cnc2Nc2nc(C)cc(C)n2)cc1OC | 1.2 | 0.84
O=C(Nc1nc(-c2ccc(F)cc2)cs1)c1cnccn1 | 0.97 | -0.97
CCOc1ccc(-n2c(=O)cc(N3CCN(c4ccc(F)cc4)CC3)[nH]c2=O)cc1 | 0.98 | -0.38
Cc1nc2ccc(S(=O)(=O)NC(C(=O)NC(C)c3ccccc3)C(C)C)cc2s1 (stereo not drawn) | 1 | 0.75
Cc1cc(N2CCC(C)CC2)nc2ccc(NC(=O)CCC(=O)N3CCCC(C)C3)cc12 (stereo not drawn) | 0.86 | -6.3
CC1CCCC(NC(=O)C2c3ccccc3C(=O)N2Cc2ccc3c(c2)OCO3)C1C (stereo not drawn) | 0.91 | -1.7
CCCN1CCN(CCCNC(=O)Cn2nc(-c3ccc(Cl)cc3)ccc2=O)CC1 | 1 | 1.6
CCOc1ccc(CCNC(=O)c2nc(-c3ccccc3F)oc2C)cc1OCC | 0.9 | -1.3
O=S(=O)(c1ccc(Cl)cc1)N1CCN(c2ccc(N3CCOCC3)nn2)CC1 | 1.1 | 1.2
COc1ccc(OCc2nc3ccccc3n2Cc2ccccc2Cl)cc1 | 0.84 | -1.1
Cc1ccc2c(c1)C(c1ccc(F)cc1)N(C(=O)Cc1cccc3ccccc13)CC(=O)N2 (stereo not drawn) | 0.92 | -0.35
CCCCN(C)c1c(N2CCN(C(=O)OCC)CC2)c(=O)c1=O | 1 | 0.33
COc1cccc(CNC(=O)CCN2C(=O)C(C)Oc3ccc(C)cc32)c1 (stereo not drawn) | 0.97 | -0.43
COc1ccc(NC(=O)COc2cc(=O)n(C)c3ccccc23)c(OC)c1 | 0.81 | -2.9
CCOc1ccc2nc(N3CCC(C(=O)NCCCOC)CC3)sc2c1 | 1 | 0.014
CCN(CCNC(=O)CCN1C(=O)COc2ccccc21)c1ccccc1 | 1 | -0.13
COc1ccc(CN2C(=O)Cn3cccc3C2C(=O)NC2CCCC2)cc1 (stereo not drawn) | 1.1 | 1.5
Cc1cc(C)n(-c2nc3ccccc3nc2Nc2ccc(Cl)cc2Cl)n1 | 1.2 | 5
CC(C)C(=O)N1CC(=O)Nc2ccc(F)cc2C1c1ccc(F)cc1 (stereo not drawn) | 1 | 0.32
NC(=O)c1oc2ccccc2c1NC(=O)CN1CCCCC1 | 1 | 0.11
CC1(C)CC(=O)N(CC(=O)O)c2ccccc2S1(=O)=O | 1 | 0.48
COc1ccc(OCc2nc3ccccc3n2Cc2cccc(C)c2)cc1 | 0.77 | -2.2
CCOC(=O)C1CCCN(c2c(NC3CCN(C(=O)OCC)CC3)c(=O)c2=O)C1 (stereo not drawn) | 1.1 | 2.8
Cc1ccccc1C(=O)Nc1c(C(=O)c2ccc(Cl)cc2)oc2ccccc12 | 1.1 | 0.47
Cc1ccc(C)c(NCC(O)Cn2c(C)c(C)c3ccccc32)c1 (stereo not drawn) | 0.67 | -6.5
CCOC(=O)c1c(C)n(CCNC(C)=O)c2ccc(O)cc12 | 0.98 | -0.24
COc1ccc(CNC(=O)c2cnc3scc(C)n3c2=O)cc1 | 0.87 | -1.5
COc1cc2c(C(=O)N3CCN(Cc4ccc5c(c4)OCO5)CC3)cn(C)c(=O)c2cc1OC | 1 | 0.41
COC(CNC(=O)c1ccc2c(c1)ncn2-c1ccc(C)cc1C)OC | 1.1 | 1.4
COc1ccccc1NC(=O)c1cn(-c2ccc(F)cc2F)c(=O)c2ccccc12 | 1 | 0.89
CCCCNC(=O)c1c[nH]c2ccc(S(=O)(=O)Nc3ccc4c(c3)OCCO4)cc2c1=O | 1.5 | 2.1
Cc1ccccc1NC(=O)NCCc1nc2ccccc2[nH]1 | 1.1 | 0.6
CCOc1ccc(NC(=O)CSc2nccn2-c2cccc(C)c2)cc1 | 0.83 | -0.17
CCCN1Cc2cccc(C(=O)Nc3ccc(CC)cc3)c2C1=O | 1 | 0.041
CN(C)c1ccc(-c2nc3cc(NC(=O)c4ccc(C(C)(C)C)cc4)ccc3o2)cc1 | 0.94 | -0.51
Cc1ccc(Cl)cc1NC(=O)Cn1c(=O)n(CCc2c[nH]c3ccccc23)c(=O)c2cccnc21 | 0.94 | -2.1
Cc1nc2cc(NC(=O)c3ccc(S(=O)(=O)N4CCCC(C)C4)cc3)ccc2s1 (stereo not drawn) | 0.98 | -0.35
Cn1c(C(=O)NCc2cccnc2)cc2sc(Cl)cc21 | 1 | 1.1
COc1cc(CN2CCN(Cc3ccc(F)cc3)CC2)cc(OC)c1OC | 0.83 | -2.1
COc1ccccc1-c1c(C)nn2c(N3CCC4(CC3)OCCO4)cc(C)nc12 | 1.2 | 1.3
CCCCN(CC)CCCNC(=O)c1ccc2c(c1)N(Cc1cc(C)ccc1C)C(=O)CS2 | 1 | 0.57
COc1ccc(Nc2nnc(-c3ccc(C)c(S(=O)(=O)N4CCCCC4)c3)c3ccccc23)cc1 | 0.92 | -1.5
CCN(C(=O)c1ccc(CNc2c(N3CCC(C)CC3)c(=O)c2=O)cc1)c1ccc(OC)cc1 | 0.98 | -0.79
CCOc1cc2c(cc1OCC)C(c1ccc(NC(C)=O)cc1)NCC2 (stereo not drawn) | 1.1 | 1.7
CC(C)(C)c1ccc(-c2nc3cc(NS(=O)(=O)c4ccccc4)ccc3o2)cc1 | 0.89 | -2.2
CCOC(=O)N1CCN(c2nc(-c3ccc(Cl)cc3)cs2)CC1 | 1 | 0.6
CCN1CCn2c3c(c4cc(Cl)ccc42)CCCC31 (stereo not drawn) | 0.98 | -0.41
COc1ccc(OC)c(NC(=O)c2sc3ncn(CC(=O)N4CC(C)CC(C)C4)c(=O)c3c2C)c1 (stereo not drawn) | 1 | 0.64
O=C(Nc1ccc(F)cc1)C(Cc1ccccc1)NS(=O)(=O)c1cccs1 (stereo not drawn) | 0.99 | -0.087
Cc1nnn(C23CC4CC(CC(CC(=O)NCc5ccc6c(c5)OCO6)(C4)C2)C3)n1 | 0.97 | -0.63
COCCCNC(=O)CN1CCN(Cc2ccccc2C)C1=O | 0.97 | -0.55
CCOC(=O)Cc1csc(NC(=O)CCCOc2ccc(C)cc2)n1 | 1.1 | 1.1
CC(=O)N1CCc2cc(S(=O)(=O)Nc3ccccc3F)ccc21 | 0.97 | -1.1
CCc1ccc(OCc2nc(-c3cccc(C)c3)no2)c(Br)c1 | 1.1 | 1.2
CCOC(=O)CSc1nnc(Cc2cc(=O)[nH]c(=O)[nH]2)n1-c1ccc(OCC)cc1 | 1 | 0.06
CCCNC(=O)c1ccc2c(c1)N(Cc1ccccc1F)C(=O)c1ccccc1S2=O (stereo not drawn) | 0.9 | -1.5
CCc1ccc(NC(=O)CSc2nnc(-c3c[nH]c4ccccc34)n2CC)cc1 | 1.2 | 1.4
CC(C)OCCCNC(=O)C1CCC(=O)N1Cc1ccc(F)cc1 (stereo not drawn) | 1 | 1.3
COc1ccc(-c2nn(C)c(=O)c3ccccc23)cc1CNC(=O)c1cccs1 | 1.1 | 0.45
CN1CCSc2ccc(C(=O)Nc3cc(F)ccc3F)cc21 | 0.92 | -1.3
COc1ccc(NC(=O)CC2Oc3ccccc3NC2=O)cc1Cl (stereo not drawn) | 1.2 | 0.93
Cc1ccc(CNC(=O)C2CCN(S(C)(=O)=O)CC2)cc1 | 1.2 | 2.6
Cc1ccc(NC(=O)C2CCN(S(=O)(=O)c3cccnc3)CC2)c(C)c1 | 1 | 0.33
Continuation.
SMILES | CBX7 AlphaScr | CBX7 AlphaScr z-score
CCC1Oc2ccccc2N(Cc2ccccc2F)C1=O (stereo not drawn) | 1.1 | 1.7
Cc1ccc(C(=O)CSc2n[nH]c(-c3ccncc3)n2)c(C)c1 | 0.65 | -0.72
Cc1ccc(S(=O)(=O)C2(C(=O)Nc3ccc(C)c(F)c3)CC2)cc1 | 1.1 | 1.1
CCOC(=O)c1cc2c(=O)n(C)c(=O)n(C)c2nc1C | 0.91 | -0.99
CCc1cccc(-n2c(C)nc3c(cnn3-c3ccc(C)c(C)c3)c2=O)c1 | 0.76 | -3.1
Cc1ccc2nc(NC(=O)CC3(CC4=NS(=O)(=O)c5ccccc5N4)CCCC3)sc2c1 | 1 | 0.43
O=C(CC1(O)C(=O)N(Cc2ccccc2)c2ccccc21)c1ccccc1O (stereo not drawn) | 0.97 | -0.077
O=C(CC1Sc2ccc(C(F)(F)F)cc2NC1=O)Nc1ccc(C(F)(F)F)cc1 (stereo not drawn) | 1.1 | 0.069
O=C(CN1C(=O)COc2ccc(S(=O)(=O)N3CCCCCC3)cc21)NCCN1CCCC1 | 1 | 0.83
O=C(C1CCN(c2nc3ccccc3n2Cc2ccc(F)cc2)CC1)N1CCC2(CC1)OCCO2 | 0.87 | -1.6
O=C1CC(c2ccccc2C(F)(F)F)c2cc3c(cc2N1)OCO3 (stereo not drawn) | 1.1 | 1.5
COc1ccc(CNC(=O)CCn2c(=O)[nH]c3cc(OC)c(OC)cc3c2=O)cc1 | 1.1 | 2
COc1ccc(-c2nn(C)c(=O)c3ccccc23)cc1NC(=O)Cn1nc(C)c2ccccc2c1=O | 0.98 | -0.69

Six entries from above, with two lines to a compound.
Each structure is followed by: CBX7 AlphaScr	CBX7 AlphaScr z-score
> CCOC(=O)c1cc2c(=O)n(C)c(=O)n(C)c2nc1C
  0.91	-0.99
> CCc1cccc(-n2c(C)nc3c(cnn3-c3ccc(C)c(C)c3)c2=O)c1
  0.76	-3.1
> Cc1ccc2nc(NC(=O)CC3(CC4=NS(=O)(=O)c5ccccc5N4)CCCC3)sc2c1
  1	0.43
> O=C(CC1(O)C(=O)N(Cc2ccccc2)c2ccccc21)c1ccccc1O (stereo not drawn)
  0.97	-0.077
> O=C(CC1Sc2ccc(C(F)(F)F)cc2NC1=O)Nc1ccc(C(F)(F)F)cc1 (stereo not drawn)
  1.1	0.069
> O=C(CN1C(=O)COc2ccc(S(=O)(=O)N3CCCCCC3)cc21)NCCN1CCCC1
  1	0.83

An excerpt (hit frequency here may not be typical).
